HSV replic up – HSV replication enhancement; maximum fold increase; HSV replication augmentation in cells, fold increase; 220,000 tested, 0.005% active;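 active means peak rise of 1.5-fold or more in the series; inconclusive means self-fluorescent or not available for retest; tested in PC3 cells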;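 further: first round at 10 µM; read as green reporter fluorescence; hits show the peak of a series up to 25 µM; 1 = signal of infected wells without compound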
RGS16-Gao – modulates binding between human RGS16 and Galphao. bead-based flow cytometry RGS16-Galphao binding, fluorescence; actives lie on both sides. 220,000 tested, 0.38% active. binding response (% of control), % at 10 µM;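 active means below 25% or above 175%, edge rows of some plates excepted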;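 further: Galphao activated by GDP with aluminum fluoride before binding; 100% = wells without compound and 0% = beads without RGS; some results beyond the cut were filed as inactive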
Target sequence (O15492 whole entry, looked up): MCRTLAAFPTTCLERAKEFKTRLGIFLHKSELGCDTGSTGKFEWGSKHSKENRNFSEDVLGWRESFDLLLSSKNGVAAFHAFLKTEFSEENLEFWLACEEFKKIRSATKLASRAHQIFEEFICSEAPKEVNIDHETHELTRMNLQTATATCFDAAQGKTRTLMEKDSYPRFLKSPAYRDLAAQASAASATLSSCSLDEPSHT
Target sequence (P09471 whole entry, looked up): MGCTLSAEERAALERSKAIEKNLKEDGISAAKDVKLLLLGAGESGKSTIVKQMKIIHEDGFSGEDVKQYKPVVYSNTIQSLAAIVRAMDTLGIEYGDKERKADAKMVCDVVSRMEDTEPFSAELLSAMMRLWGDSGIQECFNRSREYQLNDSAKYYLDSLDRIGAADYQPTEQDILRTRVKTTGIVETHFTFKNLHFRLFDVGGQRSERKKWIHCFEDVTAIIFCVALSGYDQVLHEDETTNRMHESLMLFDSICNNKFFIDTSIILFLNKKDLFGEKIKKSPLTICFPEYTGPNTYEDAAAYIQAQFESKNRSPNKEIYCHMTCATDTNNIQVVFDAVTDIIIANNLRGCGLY
PKD1 inh – inhibitors of human PKD1 kinase. AID 797. PKD1 kinase fluorescence polarization assay. inhibition, %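 (about 10 µM by stock and volumes)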. Q15139. 200,000 tested, 0.056% active;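 active means inhibition of 50% or more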;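 further: controls were vehicle for no effect and a reference inhibitor for full effect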
INS promoter inh – TRM-6 insulin promoter activity inhibition; TRM-6 cells (human fetal islet line), insulin promoter-eGFP reporter, imaging; reporter expression induced with tamoxifen; inhibition, % at 2 µM; 130,000 tested, 0.9% active;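 active means inhibition above the mean plus 3 SD, with well images judged a real hit on visual review, cut at about 60% in these data, passing the limit was not always enough; inconclusive means inhibition over the cutoff but images rejected on review; inactive means inhibition not above the cutoff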
GALR2 agonist – agonists of human galanin receptor 2 (GALR2) | 140,000 tested, 0.48% active | activation, %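 (tested at 5 µM)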 | GALR2-expressing cells, agonist activation read-out | O43603 | AID 803;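 active means above mean plus 3 SD of all compounds, about 5% in these data, not always enough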;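 further: 0% = vehicle buffer wells and 100% = reference agonist at full effect; tested in CHO reporter cells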
Target sequence (O43603 whole entry, looked up): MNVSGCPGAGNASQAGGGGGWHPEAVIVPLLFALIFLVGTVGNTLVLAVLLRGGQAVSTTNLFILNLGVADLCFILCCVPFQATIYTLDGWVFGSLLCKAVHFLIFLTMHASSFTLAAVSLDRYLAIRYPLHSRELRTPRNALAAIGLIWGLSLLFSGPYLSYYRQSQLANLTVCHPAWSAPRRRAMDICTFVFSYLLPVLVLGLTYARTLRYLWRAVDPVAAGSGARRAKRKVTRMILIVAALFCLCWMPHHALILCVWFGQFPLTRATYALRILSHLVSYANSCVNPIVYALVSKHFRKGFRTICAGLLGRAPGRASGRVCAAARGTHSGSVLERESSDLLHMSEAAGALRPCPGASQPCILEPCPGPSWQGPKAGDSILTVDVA
INS promoter inh cell count – further read-out of INS promoter inh, marked with its call; normalized cell count, %; measured here: cell count, toxicity; reference of the scale not given here;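 cells exposed to compound for 48 h; stained nuclei by imaging scaled within each plate; lower means fewer cells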
HSV replic up primary fold – recorded beside HSV replic up, whose call it bears; fold increase; compound at 10 µM; measured here: primary screen fold increase 10 uM; tested in PC3 cells;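 GFP signal in the first replicate; 1 = infected wells without compound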
An asterisk follows results filed as active; i = inactive; ? = inconclusive; / = no result given.

SMILES	HSV replic up	HSV replic up primary fold	RGS16-Gao	PKD1 inh	INS promoter inh	INS promoter inh cell count	GALR2 agonist
Cn1cccc1/C=N/NC(=O)c1ccccn1	i	0.99	105.9	/	/	/	/
CSc1ccc(C#N)cc1NC(=O)c1cccnc1Cl	i	0.88	100.0	-0.6	/	/	/
Cc1c(NC(=O)CNCc2ccc3c(c2)OCO3)c(=O)n(-c2ccccc2)n1C	i	0.94	105.8	/	/	/	/
O=C(O)c1nc2nc(Cl)c(Cl)nc2[nH]1	i	0.99	116.0	/	/	/	/
O=c1cc(N2CCCCC2)c(-c2ccccc2)nn1Cc1ccccc1Cl	i	0.85	95.6	-11.4	-18.0	118.6	-0.2
CC1(C)CC(=O)C2=C(C1)NC(=S)C(C#N)C21CCCCC1 (configuration not stated)	i	1.04	93.4	/	/	/	/
O=C(NC1CCCCC1)C(c1cccs1)N(Cc1cccs1)C(=O)c1ccco1 (configuration not stated)	i	1.12	100.6	-1.1	/	/	-1.6
COc1ccc(Cn2nnnc2CN(Cc2cc3ccc(C)cc3[nH]c2=O)C2CCCC2)cc1	i	0.84	94.9	-21.0	-66.7	89.2	-1.5
CCN=C(Nc1ccc2c(c1)OCO2)SC1CC(=O)N(c2ccc(OC)cc2)C1=O (configuration not stated)	i	0.85	100.2	-1.3	-21.6	157.4	-3.9
Nc1nc2c3ccccc3nc(Cc3ccccc3)n2n1	i	1.05	96.0	3.3	55.6	125.6	-1.0
CCOC(=O)c1c(CS(=O)(=O)c2ccccc2)n(C)c2cc(Br)c(O)c(CN(C)C)c12	i	1.19	101.3	1.9	-29.4	60.1	/
COc1ccccc1C1=NN(C2=NN=C(N)Cc3ncnn32)C(O)(C(F)(F)F)C1 (configuration not stated)	i	0.89	49.1	3.0	-100.0	81.7	/
O=C(CSc1n[nH]c(=O)[nH]c1=O)c1ccccc1[N+](=O)[O-]	i	0.96	98.6	/	/	/	/
Cc1cc(C(=O)Nc2ccc(N3CCOCC3)cc2)c2ccccc2n1	i	0.78	99.7	9.6	7.7	94.4	-1.4
CCn1cc(C(=O)OCC(=O)c2cc(C)n(-c3ccccc3)c2C)c(=O)c2ccc(C)nc21	i	0.89	99.9	3.5	-81.2	36.1	-0.8
Cc1cccc(-c2noc(CCC(=O)NCc3ccccc3)n2)c1	i	0.93	103.2	-1.2	38.5	139.3	-1.1
Cc1ccc(CN2CCN(Cc3cnc(C)s3)CC2CCO)cc1 (configuration not stated)	i	1.03	105.4	-3.2	/	/	/
Cc1occc1-c1nc(-c2ccncc2)no1	i	0.98	98.6	-12.0	-21.6	81.7	0.2
COc1ccc(C(=O)/C=C/C(=O)N(CC(=O)NC2CCCCC2)Cc2ccccc2OC)c(O)c1	i	0.59	98.9	4.7	/	/	/
Cc1cc(C)c(C)c(OCC(=O)NCCN(C)C)c1	i	0.86	102.6	1.7	0.0	122.7	-2.8
CC1CN(C(=O)c2nn(C)cc2[N+](=O)[O-])CC(C)O1 (configuration not stated)	i	1.02	101.7	5.1	/	/	-1.0
CCC[N+]1(CC#CC(O)(c2ccccc2)C2CCCCC2)CCCCC1 (configuration not stated)	i	1.2	93.7	/	/	/	/
Cc1ccc(-c2noc(C3CCN(S(C)(=O)=O)CC3)n2)o1	i	0.96	100.6	-35.6	60.0	92.9	-4.8
COc1ccccc1CNc1cc(-c2ccccc2)ccc1OC	i	1.21	87.7	-8.6	31.0	111.8	0.2
CCCOc1ccc(C2c3c(oc4ccccc4c3=O)C(=O)N2CCN(CC)CC)cc1OC (configuration not stated)	i	0.92	122.7	-9.8	35.7	88.6	-3.3
The list continues:
SMILES	HSV replic up	HSV replic up primary fold	RGS16-Gao	PKD1 inh	INS promoter inh	INS promoter inh cell count	GALR2 agonist
Cc1c(NS(=O)(=O)c2cccc(C(=O)NCc3ccc(Cl)cc3)c2)c(=O)n(-c2ccccc2)n1C	i	1.06	101.8	-9.0	-66.7	59.0	0.9
O=C1NC(=Nc2ccccc2)SC1Cc1cccc(Cl)c1Cl (configuration not stated)	i	0.96	106.7	-6.7	18.5	117.0	-0.8
O=C(CN1C(=O)C2(OCCO2)c2ccccc21)c1ccc(F)cc1	i	0.71	105.4	-3.7	/	/	-0.2
CN1C(=S)SC(N(O)C=C2C=CC(=O)C=C2)C1(C)C (configuration not stated)	i	0.92	97.1	-5.1	21.9	104.8	-2.8
Cc1nn(CC(=O)NCC2CCCO2)c(=O)c2ccccc12 (configuration not stated)	i	1	107.9	-3.4	3.9	128.8	-2.1
Cc1nnc(NC(=O)CCC(=O)N2CCN(CCOc3cccc4ccccc34)CC2)s1	i	1.29	103.0	/	/	/	/
N/C(Cc1cccc2ccccc12)=N\OC(=O)c1cccs1	i	1.13	89.5	-3.0	5.3	113.0	-1.4
CCOC(=O)c1ccc(NC(=O)c2c(NC(=O)CCC(=O)O)sc3c2CCCCC3)cc1	i	1.29	97.1	-5.0	17.6	129.0	/
CN(C)/C=N/c1cc(=O)n(C)c(=O)n1CC1CC1	i	0.94	103.5	-3.7	-22.7	71.0	-1.1
COc1ccc(N2C(=O)CN(Cc3cc(OC)c(OC)c(OC)c3)C2=S)cc1	i	1	102.9	-7.8	/	/	/
O=C(C1CCN(S(=O)(=O)Cc2ccccc2)CC1)N1CCN(c2ncccn2)CC1	i	0.89	101.1	0.5	0.0	107.6	-3.1
O=C(Nc1ccccc1)N(CCN1CCOCC1)Cc1cccc(Cl)c1	i	1.15	99.0	3.1	12.5	77.0	-2.0
COc1cccc(C2=Nc3cccc4cccc(c34)N2)c1	i	0.9	97.7	12.3	23.5	144.4	-0.4
CC(=O)c1ccc(N2CCN(C(=O)c3cc(-c4cccnc4)nc4ccc(Br)cc34)CC2)cc1	i	0.72	100.0	-5.9	/	/	/
Cn1c(Cn2c(=O)sc3ccccc32)nnc1SCC(=O)N1CCc2ccccc21	i	1.07	91.4	-3.0	/	/	-0.6
CCN(CC)S(=O)(=O)c1ccc(N/N=C/c2ccc(O)cc2O)nc1	i	0.66	97.4	-0.6	46.7	71.5	-2.5
O=C(O)CSCC(=O)NCc1cccc(C(F)(F)F)c1	i	0.99	100.3	-0.5	/	/	/
O=C(O)CCC1(C(=O)O)OCCc2ccccc21 (configuration not stated)	i	0.86	106.6	3.9	-156.2	101.9	-1.4
COCCN(Cc1cc2cc(C)c(C)cc2nc1Cl)C(=O)Nc1ccccc1	i	0.91	96.8	-2.0	/	/	-2.3
Cc1ccc2ncc([N+](=O)[O-])n2c1	i	0.89	104.2	12.9	6.7	101.4	-2.3
COc1ccc(/C=C2/C(=O)OCc3cc(OC)c(OC)cc32)cc1	i	0.62	105.2	-1.1	-60.0	69.9	0.9
Cc1ccc(F)cc1NC(=O)Nc1cc(C(C)(C)C)nn1C	i	0.82	102.4	/	/	/	/
COc1ccc(-c2cc(C(=O)Nc3ccccc3SC)no2)cc1OC	i	0.81	104.9	1.4	/	/	-1.0
O=C(Nc1ccc2c(c1)OCO2)N1CCCC1	i	0.94	98.2	-6.6	0.0	96.3	/
COC(=O)c1ccc(C(=O)Nc2cc(Cl)ccc2Cl)cc1NC(=O)c1ccc(N(C)C)cc1	i	1.09	99.2	-6.8	/	/	-0.2

Exported with values under each structure: four of the compounds above
Order of values: HSV replic up | HSV replic up primary fold | RGS16-Gao | PKD1 inh | INS promoter inh | INS promoter inh cell count | GALR2 agonist
COc1ccc(N2C(=O)CN(Cc3cc(OC)c(OC)c(OC)c3)C2=S)cc1
→ i | 1 | 102.9 | -7.8 | / | / | /
O=C(C1CCN(S(=O)(=O)Cc2ccccc2)CC1)N1CCN(c2ncccn2)CC1
→ i | 0.89 | 101.1 | 0.5 | 0.0 | 107.6 | -3.1
O=C(Nc1ccccc1)N(CCN1CCOCC1)Cc1cccc(Cl)c1
→ i | 1.15 | 99.0 | 3.1 | 12.5 | 77.0 | -2.0
COc1cccc(C2=Nc3cccc4cccc(c34)N2)c1
→ i | 0.9 | 97.7 | 12.3 | 23.5 | 144.4 | -0.4

Remaining list, next part.
SMILES	HSV replic up	HSV replic up primary fold	RGS16-Gao	PKD1 inh	INS promoter inh	INS promoter inh cell count	GALR2 agonist
O=C1c2ccccc2C(Nc2ccc(S(=O)(=O)N3CCCCC3)cc2)N1c1ccccn1 (configuration not stated)	i	0.83	/	-10.8	/	/	-0.6
CCCSc1nc2[nH]ncc2c(=O)[nH]1	i	1.03	100.2	-1.0	12.5	89.5	-0.4
O=C(O)/C=C\C(=O)Nc1ccccc1C(=O)NC1CCCCC1	i	0.9	70.9	4.5	/	/	/
CCN(CC)S(=O)(=O)c1ccc(NC2CCCc3ccccc32)nc1 (configuration not stated)	i	0.92	101.2	-5.3	-261.9	30.5	-2.3
COC(=O)c1sccc1NC(=O)Cn1cnc2c1c(=O)n(C)c(=O)n2C	i	0.93	107.8	10.4	15.1	130.5	-2.9
Cc1ccccc1OCC(O)CN1CCC(C)CC1 (configuration not stated)	i	1.04	102.5	-7.7	-5.3	111.0	/
Cc1nnc(-c2ccc(Oc3ccc(Cl)cc3)c([N+](=O)[O-])c2)o1	/	/	103.9	-1.4	50.0	114.8	0.5
O=C(CNC1CCCCCC1)Nc1ccc(S(=O)(=O)NC2CC2)cc1	i	0.93	103.1	1.0	27.0	104.9	-2.6
CC(C)c1ccc(CNc2ccc([N+](=O)[O-])cn2)cc1	i	0.88	93.1	-0.8	-11.8	89.8	/
Nc1ccc(C(=O)Nc2nc3ccccc3s2)cc1	i	0.81	100.1	-5.7	/	/	0.2
Cc1ccccc1OCc1nc(-c2ccc(NC(=O)c3ccco3)cc2)no1	i	0.98	97.9	6.5	59.3	182.2	-0.9
Cc1cccc(N(CC(=O)NCCC2=CCCCC2)S(C)(=O)=O)c1C	i	1.07	104.8	-9.6	3.3	91.0	-0.9
Fc1cccc(Cl)c1Cn1nnc2c(N3CCC4(CC3)OCCO4)ncnc21	i	0.937	87.5	1.4	-13.5	80.7	0.8
Cc1cc(C)c[n+](-c2[nH]c(=O)sc2/C=N/NC([S-])=Nc2ccccc2)c1	?	/	92.9	-0.8	-103.2	126.2	-1.2
Cc1ccc(NC(=O)Cn2cccc2C2=NC(c3ccccc3)CO2)c(C)c1 (configuration not stated)	i	1.02	106.7	-9.1	19.2	84.9	-0.2
CCCCCc1ccc(-c2ccc(=O)[nH]n2)cc1	/	/	98.4	-8.1	/	/	-0.6
[O-][n+]1c2c(c3c4non(O)c4ccc31)CCCC2	i	0.92	94.8	-0.4	-93.3	118.3	-0.6
O=C(COC(=O)c1ccccc1OCc1ccc(Cl)cc1)NC1CC1	i	1.11	110.0	-11.7	7.9	32.9	-0.6
CCC(C)[C@H](NC(=O)Nc1ccc(C(C)=O)cc1)C(=O)OC (some centres not stated)	i	0.97	96.5	4.2	/	/	-0.7
O=C(Nc1cccc([N+](=O)[O-])c1)Nc1cccc([N+](=O)[O-])c1	i	0.85	99.7	0.1	-81.8	40.0	/
O=C(CCCCCn1c(=S)[nH]c2cc3c(cc2c1=O)OCO3)N1CCN(Cc2ccccc2)CC1	i	0.94	91.0	-1.0	/	/	-1.6
CCOC(=O)C1=C(CN2CCCCCC2)NC(=O)NC1c1cccc([N+](=O)[O-])c1 (configuration not stated)	i	0.97	98.2	10.3	/	/	/
CC1CCCN(C(=S)Nc2ccc3nc4n(c(=O)c3c2)CCCCC4)C1 (configuration not stated)	i	0.79	100.1	2.6	21.4	99.8	-1.3
Cc1ccc(-n2c(C)c([N+](=O)[O-])c3ccc(O)c(CN(C)C)c32)cc1	i	0.63	104.6	8.0	54.2	98.9	-3.2
COc1ccc(-c2oc3ccccc3c(=O)c2OCC(=O)O)cc1	i	1.04	104.0	-4.9	/	/	/
COc1ccc(CCN(C)C(=O)CNC(=O)c2ccccc2F)cc1OC	i	0.98	110.1	-10.2	-9.1	114.3	/
C=CCN1C(=O)/C(=C/c2cccs2)S/C1=N\S(=O)(=O)c1ccc(F)cc1	i	1.01	105.0	0.0	-22.4	82.0	-0.8
COc1ccc(OCC#CCn2ccnc2)cc1	i	0.96	104.2	-4.4	/	/	/
O=C(O)c1cccc(NC(=O)c2cc(-c3cccc(Cl)c3)nc3ccccc23)c1	i	1.1	101.2	2.9	/	/	/
